CDC25B-CDK2 inh: primary biochemical HTRF screen for blockers of M-phase inducer phosphatase 2 binding to CDK2/cyclin A | AID 1259370, 2018 | HTRF CDC25B-CDK2/CyclinA binding, anti-His/anti-Flag; stronger effect = higher value | 94,000 compounds, 0.72% hits | z-score (no concentration beside the values) | P30305+P24941;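 note: score is relative to mean and SD of negative controls; strong numbers were not always called active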
TAR Tat displ: TAR RNA-Tat peptide displacers, HIV-1, primary screen, biochemical, FRET, FAM/TAMRA-labeled Tat; HIV-1 TAR RNA, Tat peptide displacement FRET; stronger effect = higher value; 100,000 compounds, 0.6% hits; z-score (test concentration not listed);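 note: score is relative to mean and SD of negative controls; some compounds called inactive have numbers as strong as hits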
The depositor's hits bear a star; . = not tested or not shown.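 Rule for the calls: active = z-score from 3 up in half or more of its runs; inactive = the rest.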

Preview, three compounds:
SMILES	CDC25B-CDK2 inh	TAR Tat displ
O=C(NC1CCCCC1)C1Cc2ccccc2CN1S(=O)(=O)c1ccc(F)cc1 (stereo not drawn)	0.34	0.53
COCCCNC(=O)c1c(N2CCCC2=O)c2cc(F)ccc2n1C	.	0.43
O=C(NCCN1CCCC1)C1CCN(c2nnc(-n3cccc3)s2)CC1	.	0.11

The list itself, repeating the preview:
SMILES	CDC25B-CDK2 inh	TAR Tat displ
O=C(NC1CCCCC1)C1Cc2ccccc2CN1S(=O)(=O)c1ccc(F)cc1 (stereo not drawn)	0.34	0.53
COCCCNC(=O)c1c(N2CCCC2=O)c2cc(F)ccc2n1C	.	0.43
O=C(NCCN1CCCC1)C1CCN(c2nnc(-n3cccc3)s2)CC1	.	0.11
O=C(NCc1ccc2c(c1)OCO2)c1cc(-c2cccs2)nc2ccccc12	0.66	.
COc1ccc(CSc2nc3ccncc3n2Cc2ccccn2)cc1	-0.53	0.29
Cc1nc2cc([N+](=O)[O-])c([N+](=O)[O-])cc2n1C	-2.2	.
COc1ccc(OC)c(-n2nnc(-c3nc(-c4ccccc4C)no3)c2N)c1	.	-0.89
Cc1ccc(CNC(=O)Nc2nc3c(s2)CCCC3)cc1	.	0.91
O=c1c2nccnc2nc(SCc2ccc(F)cc2)n1CC1CCCO1 (stereo not drawn)	0.27	0.03
COc1ccc(Br)cc1C1CC(=O)Nc2c1cnn2-c1nc2ccccc2s1 (stereo not drawn)	.	2.5
N#C/C(=N\OS(=O)(=O)c1ccc(Cl)c(Cl)c1)c1c(Cl)cccc1Cl	-2.5	.
CCOc1ccc(Br)cc1C1N2CC3(C)CN1CC(CC)(C2)C3=O (stereo not drawn)	-0.93	0.43
CC1(C)Cc2c(sc3nc(SCc4ccccc4F)nc(N)c23)CO1	-3.1	0.72
O=C(CCC(=O)N1CCOc2ccc(Cl)cc21)NCCCN1CCN(C2CCCCC2)CC1	-2.2	0.07
CCC(C)NC(=O)CN(C)S(=O)(=O)c1ccc2c(c1)CC(C)N2C(C)=O (stereo not drawn)	.	0.65
CC1(C)SC(c2ccccc2)N[C@H]1C(=O)O (stereo partly drawn)	-2.3	.
Nc1ccccc1SCc1cccc(Cl)c1F	-1.7	.
NC(=O)c1nc(-c2cccc(F)c2)nc2c1[nH]c(=O)n2-c1ccc(F)cc1	.	1.5
COc1ccc(CC(=O)Nc2ccc(N3CCOCC3)cc2)cc1OC	4.1	.
Cc1ccc(-c2nnc(Nc3cccc(O)c3)c3ccccc23)cc1S(=O)(=O)N(C)C	-2.1	1.6
COc1cccc(OCCn2cc(C(=O)c3ccco3)c3ccccc32)c1	-0.23	-3.4
O=C(Nc1ccccc1N1CCCCC1)c1cc(Cl)sc1Cl	-1.4	.
Cc1ccc(Nc2nc(N(C)C)nc3c2cnn3C)cc1Cl	.	1.3
O=C(O)Cc1nc2ccc(Cl)cc2[nH]1	-0.46	-0.21
Cc1cc(NC(=O)CSc2nc3c(cnn3-c3ccc(S(N)(=O)=O)cc3)c(=O)[nH]2)no1	5.1	.
COc1ccc(Cl)cc1NC(=O)C(=O)N/N=C/c1ccccc1C(=O)O	-0.93	.
CC1CCCC(C)N1c1nnc(N)s1 (stereo not drawn)	.	-0.5
Cc1cc2nc(CSCC(=O)Nc3ccccc3F)cc(=O)n2o1	.	0.69
O=C(CCCn1c(=O)c2cccn2c2cccnc21)N1CCN(Cc2ccc3c(c2)OCO3)CC1	.	1.3
C=CCOc1ccc(/C(O)=C2/C(=O)C(=O)N(CCOC)C23C(=O)N(CC)c2ccccc23)cc1 (stereo not drawn)	-0.14	2.7

5 of these compounds, set out differently.
compound | CDC25B-CDK2 inh | TAR Tat displ
CC1(C)SC(c2ccccc2)N[C@H]1C(=O)O (stereo partly drawn) | -2.3 | .
Nc1ccccc1SCc1cccc(Cl)c1F | -1.7 | .
NC(=O)c1nc(-c2cccc(F)c2)nc2c1[nH]c(=O)n2-c1ccc(F)cc1 | . | 1.5
COc1ccc(CC(=O)Nc2ccc(N3CCOCC3)cc2)cc1OC | 4.1 | .
Cc1ccc(-c2nnc(Nc3cccc(O)c3)c3ccccc23)cc1S(=O)(=O)N(C)C | -2.1 | 1.6

Compound profiles, from the list above. Values in the order: CDC25B-CDK2 inh | TAR Tat displ
`O=C(O)Cc1nc2ccc(Cl)cc2[nH]1` as listed: -0.46 | -0.21
`Cc1cc(NC(=O)CSc2nc3c(cnn3-c3ccc(S(N)(=O)=O)cc3)c(=O)[nH]2)no1` as listed: 5.1 | .

(further entries)
SMILES	CDC25B-CDK2 inh	TAR Tat displ
Cc1cc(C)c2ccc(CO)nc2c1O	-2.1	.
O=C(CN1C(=O)CCSc2ccccc21)NCC1CCCO1 (stereo not drawn)	-2.6	-0.53
CCSc1ccc(/C(N)=N/OC(=O)c2cccs2)cn1	-0.59	.
COc1ccc(OC)c(C(=O)c2oc3ccc(OC)cc3c2N)c1	6.1	0.83
O=C(O)CCS(=O)(=O)c1ccc(Cl)cc1	.	0.57
Cn1c(=O)n(C)c2cc(N3CCOCC3)c(NS(=O)(=O)c3ccccc3Br)cc21	.	0.9
O=C(CCc1nc(-c2ccc(S(=O)(=O)N3CCCC3)cc2)no1)N1CCCC1	.	0.47
CCC(C)NS(=O)(=O)c1cc(-c2onc(C)c2C)ccc1OC (stereo not drawn)	.	1.8
CCOCc1cc(CN2CCN(c3ccccc3)CC2)c(O)c2ncccc12	-1.2	1.6
CCOC(=O)c1c(-c2ccc(C)cc2)csc1N	-0.69	-0.63
CC(C)C(=O)N1N=C(c2ccncc2)CC1(O)C(F)(F)F (stereo not drawn)	-0.98	.
C=CCOc1ccc(C2N3CC4(C)CN2CC(CC)(C3)C4=O)cc1 (stereo not drawn)	-1.3	1.3
Cc1ccc2[nH]cc(S(=O)(=O)c3ccc(Cl)cc3)c(=O)c2c1	-1.7	2.1
CCN(CC)c1cc2c(cc1F)c(=O)c(S(=O)(=O)c1ccc(C)c(C)c1)cn2CC	.	-0.75
Cc1ccc(Cl)cc1N(C)C(=O)[C@H]1[C@@H]2C[C@@H]3[C@H]1C(=O)O[C@@H]3C2	-1.5	1.3
Cc1nc(CNC(=O)[C@H]2CSCN2C(=O)Nc2ccc(F)cc2)cs1	.	1.1
O=C(O)C1CCCCC1C(=O)Nc1ccc(N2CCOCC2)c2nonc12 (stereo not drawn)	-0.18	0.22
Cn1c(=O)c(=O)n(C)c2cc(S(=O)(=O)N3CCCC3C(=O)O)ccc21 (stereo not drawn)	-0.22	0.68
Cc1ccc(Cc2nnc(-c3cc(NC(=O)NCC4CCCO4)ccc3F)o2)cc1 (stereo not drawn)	.	1.4
O=C1Cc2cc(NS(=O)(=O)c3ccc(Br)cc3)ccc2N1	.	1.2
O=C(/C=C/Oc1ccc(Cl)cc1)c1ccc(Br)cc1	-2.1	.
COc1ccc(CNS(=O)(=O)c2ccc3[nH]c(=O)oc3c2)c(OC)c1	0.65	.
CN(C)CCNC(=O)c1cnn2c3c(cnc12)C(=O)CC(C)(C)C3	.	1.7
COc1ccc(CCNC(=O)c2sc3ccccc3c2Cl)cc1OC	-1.3	.
CC(C)c1ccc(S(=O)(=O)c2n[nH]n3c2nc(=O)c2ccccc23)cc1	1.8	0.93
CC1CCCCN1C(=O)c1nn(C)c2c1COc1ccccc1-2 (stereo not drawn)	-0.74	1.1
Cc1nn(S(=O)(=O)c2ccc(Cl)cc2)c(C)c1S(=O)(=O)N1CCC(C)CC1	.	0.4
O=C(Cn1c(=O)oc2ccccc21)N(Cc1cccs1)C1CCCCC1	.	0.18
O=C(CSc1nc2ccccc2o1)N1c2ccccc2Sc2ccccc21	-1.7	.
Cc1c(CCC(=O)O)c(=O)n2c([nH]c3ccccc32)c1C#N	4.1	-0.21
CS(=O)(=O)CCC(C(=O)NCc1ccc2c(c1)OCO2)N1Cc2ccccc2C1=O (stereo not drawn)	.	0.52
CCOc1cc(/C=c2/sc3nc4cc(C)c(C)cc4n3c2=O)cc(Cl)c1O	-1.8	.
Cc1cc(NC(=O)C2CC(c3c(F)cccc3Cl)=NO2)no1 (stereo not drawn)	0.98	0.39
Cn1c(=O)c2c(ncn2CC(=O)NCc2ccncc2)n(C)c1=O	-0.6	0.39
CNC(=S)NNC(=O)c1cccnc1	-1.7	.
O=C(c1cc2ccccc2oc1=O)N1CCN(c2ccc(N3CCOCC3)nn2)CC1	-0.36	.
CCN1CCCC1CNC(=O)c1cc(S(N)(=O)=O)ccc1OC (stereo not drawn)	-0.75	.
O=C(NC1CCCc2ccccc21)C1CCC(CNc2c(N3CCOCC3)c(=O)c2=O)CC1 (stereo not drawn)	-0.56	.
CCOC(=O)c1cc2cc(OCc3ccccc3)ccc2n1C(=O)c1ccccc1C(=O)O	0.41	.
CSc1nnc2c(n1)OC(c1cn[nH]c1-c1ccccc1)Nc1ccccc1-2 (stereo not drawn)	-2.3	.
CCCOc1ccc(-c2cccc(NS(=O)(=O)c3cccs3)c2)nn1	.	-0.51
Nc1cnc(Oc2c(Cl)cccc2Cl)c(C(F)(F)F)c1	0.17	.
CCc1ccc(S(=O)(=O)Nc2cc(Cl)c3oc(=O)sc3c2)cc1	-1.1	-0.75
O=C(NC(Cc1c[nH]c2ccccc12)C(=O)NCc1ccccc1)c1ccccc1 (stereo not drawn)	-1	.
CS(=O)(=O)c1oc(-c2ccc(F)cc2)nc1S(=O)(=O)c1ccc(Cl)cc1	-3.4	-0.79
CCOc1ccc(NS(=O)(=O)c2ccc3[nH]c4c(c3c2)CCCC4)cc1	.	0.95
Cc1cc(Cl)ccc1NS(=O)(=O)c1ccc(-c2ccc(=O)[nH]n2)o1	.	2.1
CC1Cn2cc(C(=O)NCCCN3CCCC3=O)c(=O)c3c(Cl)ccc(c32)O1 (stereo not drawn)	.	0.5
CSc1nsc(SCC(=O)Nc2c(C)n(C)n(-c3ccccc3)c2=O)n1	-1.7	-0.83
Cc1ccc(O)c(C2Nc3ccccc3NC3=C2C(=O)CC(C)(C)C3)c1 (stereo not drawn)	0.78	-0.36
Cc1sc2nc(SCCCC(=O)NCCO)nc(N)c2c1C	-0.26	1.6
CC(=O)Nc1c2n(c3ccc(F)cc13)CC(C)(C(=O)NC1CCCCC1)N(CCN(C)C)C2=O (stereo not drawn)	.	1.2
Cc1ccc(-c2nonc2NC(=O)c2nn(-c3ccc(C)cc3)ccc2=O)cc1	0.09	2
C=CCn1c(SCc2nc(-c3cccc(Cl)c3)no2)nc2cc3c(cc2c1=O)OCO3	.	-0.8
COc1ccc(-c2nonc2NC(=O)c2ccc(Br)cc2)cc1OC	-0.25	-1.1
O=C(CN1C(=O)COc2ccc(S(=O)(=O)N3CCCCCC3)cc21)NCc1ccco1	0.06	.
Cc1ccc(-n2cc(-c3ccccc3)c3c(NCCO)ncnc32)cc1Cl	-2.3	.
CCc1n[nH]c(=S)c2cc3occc3n12	4.2	-0.47
CN(C)C(CNC(=O)c1cc(=O)c2cc(Cl)ccc2o1)c1ccco1 (stereo not drawn)	-0.44	-0.23
CSc1nc2c(=S)[nH]c(=S)[nH]c2s1	-1.6	.
The list continues:
SMILES	CDC25B-CDK2 inh	TAR Tat displ
COc1ccc(-n2cc(-c3ccccc3)c3c(NCCOCCO)ncnc32)cc1	-2.2	.
Cc1cccc(-n2nnc(S(=O)(=O)c3ccc(C)c(C)c3)c2C)c1	-0.71	-2.3
O=C1N(Cc2cccc(Cl)c2)c2ccccc2S(=O)(=O)N1c1ccccc1	.	1.5
O=C(Nc1ccc(F)cc1F)c1ncoc1-c1cccs1	.	0.8
CCc1nn(CC(=O)NC(C)C)c(=O)c2cc3occc3n12	-0.46	1.1
CCOC(=O)N1CCc2c(sc3c2C(=O)NC(c2cc4c(cc2Cl)OCO4)N3)C1 (stereo not drawn)	0.19	1.6
Cc1ccc(CNc2nc3ccccc3n2CCN2CCOCC2)cc1	0.4	1.7
CC(C)COC(=O)C(C)Nc1n[nH]c(=O)[nH]c1=O (stereo not drawn)	-3.1	0.24
CCOc1ccc(NC(=O)c2cnc3ccc(C)cn3c2=O)cc1	-0.75	3.1
COCCNC(=O)C1CCN(c2nn3c(=O)cc(C)nc3s2)CC1	-0.35	0.64
NS(=O)(=O)c1cccc(NC(=O)c2cccc3ccccc23)c1	-0.98	.
CCn1c2ccccc2c2nnc(SCC(=O)Nc3cc(C)on3)nc21	-0.79	2.3
Cc1cc(C)nc(NC(=O)CCCn2nnc3cc(S(=O)(=O)N(C)C)ccc32)n1	.	1.3
O=C(c1cn(CCOc2ccccc2Cl)c2ccccc12)C1CC1	-0.06	2.2
CCSc1nnc2c(n1)OC(c1cn(C(C)=O)nc1-c1ccccc1)N(C(C)=O)c1ccccc1-2 (stereo not drawn)	1.4	0.14
COc1ccc(-n2ccn(CC(=O)Nc3cc(OC)cc(OC)c3)c2=O)cc1	.	-0.11
Cn1nc(-c2ccccc2F)c2cc(C(=O)NC3CCCC3)sc21	-0.84	.
N#Cc1c(F)cccc1N=Nc1c(-c2cccs2)n[nH]c1C(F)(F)F	-1.6	.
Cc1cc(C(=O)N2CCN(c3ncccc3C#N)CC2)no1	-0.71	.
CCOCCCNC(=O)C(CC)n1nc(C)n2c(cc3sccc32)c1=O (stereo not drawn)	-0.58	-0.3
CC(C(=O)O)c1ccc(N2Cc3ccccc3C2=O)cc1 (stereo not drawn)	.	0.54
O=C(CCS(=O)(=O)c1cc(Br)cc2c1N(C(=O)C1CC1)CC2)N1CCCC1	-1.2	.
Cc1cc(Oc2ncccc2[N+](=O)[O-])c2cc(F)ccc2n1	-1.8	.
ClC1=C(CN2CCSCC2)CSc2ccc(Cl)cc21	-2.1	.

Some of the entries so far, with each value named:
smiles: Cc1cc(C(=O)N2CCN(c3ncccc3C#N)CC2)no1
  CDC25B-CDK2 inh: -0.71; TAR Tat displ: .
smiles: Cn1c(=O)n(C)c2cc(N3CCOCC3)c(NS(=O)(=O)c3ccccc3Br)cc21
  CDC25B-CDK2 inh: .; TAR Tat displ: 0.9
smiles: O=C(O)Cc1nc2ccc(Cl)cc2[nH]1
  CDC25B-CDK2 inh: -0.46; TAR Tat displ: -0.21

Screening results from PubChem BioAssay.
